Screens deposited in PubChem BioAssay by National Center for Advancing Translational Sciences (NCATS).
Rango complex inh: Rango-importin beta binding inhibition | Rango CFP/YFP FRET sensor + importin beta, 45 min | Potency, µM (titrated, usually from 92.2 µM), inactives show at the top dose inhibition of complex formation | 0.031% of 340,000 active | AID 540263; active = rising FRET ratio curve, often small or poorly fitted; inconclusive = mostly compound fluorescence or quenching in the first reads; inactive = flat curves in all reads;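 also: potency is read from the fitted curve at half-maximal effect; 0% = DMSO wells and 100% = buffer wells lacking importin beta; nearly all actives have a fitted effect of over 15% in size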
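Inhibition scored from the CFP 486 nm/YFP 530 nm FRET ratio 45 min after adding 0.125 microM importin beta to 50 nM Rango biosensor preincubated 5 min with compound (room temperature, PBS with DTT, Tween-20, BSA). No-importin wells as positive control.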
Rango release inh: prevents RanGTP from dissociating the Rango-importin beta complex; O95149+P62826; Biochemical FRET Rango-importin beta, RanGTP-induced dissociation; Potency, µM (top dose mostly 46.1 µM), without a hit: top-dose activity change, negative = inhibition; 0.071% of 340,000 active; AID 540253; active means falling FRET ratio curve, often poorly fitted, with flat reads before Ran was added; inconclusive means other falling curves, or compound fluorescence or quenching; inactive means flat or rising ratio curve;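 also: potency is read from the fitted curve at half-maximal effect; % of control where 0% means no effect; nearly all actives have a fitted effect of over 45% in size; -100% = wells without RanGTP and RCC1; the record marks most hits as doubtful in a second field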
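Two FRET readings bracket the reaction: one 5 min after compound meets Rango–importin beta, another 45 min after RanGTP-RCC1 (0.6 uM Ran, 0.2 uM RCC1, 2 mM GTP) is added. Only the second defines inhibition.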
GLA inh pH 4.5: blocks human alpha-galactosidase A at pH 4.5; activity change, negative = inhibition, % at 105 µM; purified enzyme, 4-MU-alpha-Gal fluorescence, pH 4.5; 230,000 tested, under 10 active; inconclusive = small, poorly fitted or top-dose-only inhibition, or a rising curve; inactive = flat fitted curve, though single readings scatter; no compound was filed as active;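 also: 0% = full activity with enzyme and -100% = basal without enzyme; dose as in the result columns while the protocol names 77 µM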
Target sequence (P06280 whole entry, looked up): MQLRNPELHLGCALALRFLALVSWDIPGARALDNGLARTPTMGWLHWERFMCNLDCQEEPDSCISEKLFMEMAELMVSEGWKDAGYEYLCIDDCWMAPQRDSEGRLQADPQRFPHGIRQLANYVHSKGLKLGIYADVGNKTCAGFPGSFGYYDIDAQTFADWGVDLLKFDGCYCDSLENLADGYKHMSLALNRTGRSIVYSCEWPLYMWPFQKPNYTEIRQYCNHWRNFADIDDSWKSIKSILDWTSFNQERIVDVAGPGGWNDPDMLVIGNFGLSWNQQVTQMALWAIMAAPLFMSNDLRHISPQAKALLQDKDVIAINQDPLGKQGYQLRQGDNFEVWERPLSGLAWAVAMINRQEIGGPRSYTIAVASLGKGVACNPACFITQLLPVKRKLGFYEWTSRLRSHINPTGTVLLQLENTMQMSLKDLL
miR-21 FLuc: raises the signal of a miR-21 reporter; Potency, µM (doses to about 38.3 µM), for inactives: at the top dose reporter change, positive = more light; 340,000 tested, under 10 active; HeLa miR-21 FLuc reporter, luciferase, 48 h; active = well fitted rising curve with a large enough effect; inconclusive = small, poorly fitted or top-dose-only effect; inactive = no such curve, though single readings can be large or run the other way;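 also: % of control where 0% means no effect; miR-21 action dims this reporter so a rising signal means less miR-21 action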
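Luminescence from a firefly luciferase reporter carrying a miR-21 binding site downstream, stably expressed under a CMV promoter in HeLa cells that make miR-21 endogenously, reports miRNA modulation after 48 h compound exposure up to approximately 40uM final.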
The depositor's hits bear a star; ? = inconclusive; . = no result given.

no.	smiles	GLA inh pH 4.5	miR-21 FLuc	Rango complex inh	Rango release inh
1	Cc1nnc(Nc2ccccc2)n(N)c1=O	15	-7%	-1.1%	?
2	CCN(CC)CCN(C(=O)CCOc1ccccc1)c1nc2ccc(F)cc2s1	-1	-14%	2.0%	1%
3	O=C(N/N=C/c1ccc(O)cc1)c1cc[n+](Cc2ccccc2)cc1	-6	-1%	-0.3%	-8%
4	CC(C)(C)c1ccc(S(=O)(=O)NCc2ccc(C(=O)NCC3CCCO3)cc2)cc1 (stereo unspecified)	.	2%	0.1%	21%
5	C[n+]1cccc(C(=O)NCC2CCCO2)c1 (stereo unspecified)	9	0%	-1.9%	8%
6	O=C1CN(C(=O)NCC(=O)N2CCCC2)c2ccccc2N1	.	2%	-1.1%	-1%
7	COc1cccc(C(=O)N2CCN(Cc3ccccc3[N+](=O)[O-])CC2)c1	0	-11%	3.4%	1%
8	Cc1cc(=O)c2ccccc2[nH]1	5	2%	3.9%	18%
9	COc1ccc(CN2CCC(n3nccc3NC(=O)c3cccc(F)c3)CC2)cc1O	.	-3%	0.1%	-10%
10	C[C@@H](O)C(C(=O)N1CCNCC1)n1cc([C@@H](N)CCCCN)nn1 (stereo partly specified)	.	.	6.3%	-1%
11	CCOC(=O)c1cn(Cc2ccccc2)nn1	2	-7%	-0.3%	1%
12	CSc1cccc(NC(=O)c2ccccc2N(C)S(C)(=O)=O)c1	0	-4%	-0.7%	6%
13	CCc1ccc2c(c1)[C@]1(C(=O)N2)[C@@H]2C(=O)N(Cc3ccccc3)C(=O)[C@@H]2[C@@H]2CCCN21	0	-9%	-1.6%	3%
14	O=C1NCCN(Cc2cccc(Oc3ccccc3)c2)C1CC(=O)N1CCCO1 (stereo unspecified)	0	-16%	-3.0%	-15%
15	Cn1cc(NC(=O)Nc2ccc(C(F)(F)F)cc2)c(C(F)(F)F)n1	-1	-2%	0.6%	1%
16	CC1CCN(c2nc(-c3ccncc3)nc3ccccc23)CC1	-11	11%	-1.4%	1%

2 records picked at random from the list so far, as already listed:
no.	smiles	GLA inh pH 4.5	miR-21 FLuc	Rango complex inh	Rango release inh
2	CCN(CC)CCN(C(=O)CCOc1ccccc1)c1nc2ccc(F)cc2s1	-1	-14%	2.0%	1%
3	O=C(N/N=C/c1ccc(O)cc1)c1cc[n+](Cc2ccccc2)cc1	-6	-1%	-0.3%	-8%

(further entries)
no.	smiles	GLA inh pH 4.5	miR-21 FLuc	Rango complex inh	Rango release inh
17	C/C(=N/NC(=O)c1ccc(NC(=O)c2ccc(F)cc2)cc1)c1ccccc1	2	-14%	0.2%	2%
18	CCCC1(C(=O)O)NC(c2cccc(OC)c2O)C2C(=O)N(c3ccccc3)C(=O)C21 (stereo unspecified)	-13	-6%	6.0%	1%
19	CC(C)(C)c1cc(-c2ccco2)c(C#N)c(SCC#N)n1	2	-23%	-2.2%	-7%
20	Oc1cccc(C=NNc2ccccn2)c1	.	.	-1.8%	1%
21	COc1ccc(-n2nc(C(=O)NCC(=O)N3CCCCCC3)c3ccccc3c2=O)cc1Cl	.	-10%	-1.1%	-3%
22	O=C(CNCC1CCCO1)Nc1ccccc1-n1cccc1 (stereo unspecified)	1	-1%	-1.4%	-8%
23	COC(=O)C1=C(C)OC(N)=C(C#N)C1c1ccccc1F (stereo unspecified)	-9	0%	0.2%	12%
24	COc1cc(CCC(=O)OCC(=O)Nc2cccc(S(N)(=O)=O)c2)cc(OC)c1OC	3	-4%	4.6%	8%
25	Fc1ccc(-n2nnc(-c3ccccc3Br)n2)cc1	.	-1%	0.6%	3%
26	Cc1ccc2nc(-c3sc4nc(C)ccc4c3N)[nH]c2c1	1	-13%	?	?
27	COc1ccc(N2C(=O)CCC(C(=O)NCCCN3CCC(C)CC3)C2c2ccc(OC)c(OC)c2)cc1 (stereo unspecified)	1	-1%	-0.3%	16%
28	CC(=O)c1sc(N/N=C\c2ccc(N(C)C)cc2)nc1C	.	-73%	?	?
29	O=C(CN1CCC(n2nnc3cc(F)ccc32)CC1)NNC(=O)c1ccccc1	4	-1%	-0.2%	-10%
30	Cc1cccnc1NC(=O)CN1C(=O)COc2ccc(Cl)cc21	.	-2%	-0.4%	-8%
31	Cn1c(=O)oc2cc(S(=O)(=O)N3CCN(Cc4ccc5c(c4)OCO5)CC3)ccc21	3	-4%	3.0%	1%
32	CC1Oc2ccccc2C=C1/C=N\NC(=O)c1cccnc1 (stereo unspecified)	-14	-38%	-1.8%	1%
33	CCOC(=O)C1=C(COC(=O)/C=C/c2cccc(OC)c2)NC(=O)NC1C (stereo unspecified)	.	-2%	2.6%	5%
34	Cc1ccc(S(=O)(=O)Nc2c(C)nn(C)c2C)cc1C	.	.	0.0%	-6%
35	Cc1nn(Cc2ccccc2Cl)c(Cl)c1/C=C/C(=O)OCC(=O)NC1CCS(=O)(=O)C1 (stereo unspecified)	-22	-5%	?	-1%
36	COc1cccc(OC)c1OCCCCc1c(C)n[nH]c1C	-1	-1%	?	11%
37	O=C1N/C(=N\S(=O)(=O)Cc2ccccc2)S/C1=C/c1cccc([N+](=O)[O-])c1	-11	-6%	-0.3%	-8%
38	Cc1onc(-c2c(Cl)cccc2Cl)c1/C(N)=N/OC(=O)C1CC1	-14	0%	0.1%	-9%
39	COc1nc2ccccc2nc1CCC(=O)O	5	-2%	-0.1%	11%
40	Cc1sc(NC(=O)Cn2[nH]c(=O)c3ccccc3c2=O)nc1-c1ccccc1	5	-20%	-1.1%	0%
41	CN(C)S(=O)(=O)N1C(=O)c2ccccc2C1=O	-9	-1%	1.6%	-9%
42	N#Cc1nc(-c2ccco2)oc1N1CCN(c2ccccc2)CC1	-6	-11%	-0.8%	5%
43	COc1ccc(/C=C/C(=O)OCC(=O)Nc2ccc(OC)c(S(=O)(=O)N3CCCCC3)c2)cc1	-7	-7%	4.1%	-1%
44	O=C(O/N=C1\CCS(=O)(=O)c2sccc21)c1ccccc1	2	-1%	0.2%	-7%
45	CN(C)c1ccc(/C=N/n2c(C3CCCCC3)n[nH]c2=S)cc1	.	1%	-0.1%	-10%
46	NC(=NCc1ccco1)NC(=O)c1ccccc1	.	-24%	6.6%	-11%
47	CC(C)(C)C1CCc2onc(C(=O)Nc3cccnc3)c2C1 (stereo unspecified)	2	-13%	-1.4%	-6%
48	COC(=O)CCC(=O)Nc1sc2c(c1C#N)CCCC2	-2	1%	-1.4%	?
49	Cc1ccc(Nc2c(-c3ccc(N(C)C)cc3)nc3ncccn23)cc1	0	-36%	?	?
50	CCN(CC)S(=O)(=O)c1ccc(N2CCOCC2)c(NC(=O)c2cc(-c3ccccn3)nc3ccccc23)c1	-3	9%	-2.4%	4%
51	COc1ccccc1OCCn1cc(C(=O)c2ccco2)c2ccccc21	-6	?	1.7%	-4%
52	O=C1Cn2c(nc3ccccc32)N1c1ccccc1F	2	1%	4.6%	9%
53	c1cc2ccc3ccc(-n4cnnn4)c4ccc(c1)c2c34	-4	-17%	?	?
54	CCOC(=O)c1cccc(Nc2ncnc3ccc(C)cc23)c1	-2	16%	5.5%	2%
55	N/C(=N\OC(=O)CCCOc1ccc(Cl)cc1Cl)c1ccncc1	.	-9%	3.3%	-9%
56	CCc1nc2nc(C)c(NS(=O)(=O)c3ccc(Br)s3)c(=O)n2[nH]1	.	1%	3.3%	-12%
57	COc1ccc(-c2[nH]ncc2CN2CCSCC2)c(OC)c1	-3	-2%	0.5%	0%
58	Cc1ccc(C(=O)CS(C)(=O)=O)cc1	1	-2%	0.6%	14%
59	Cc1csc(NC(=O)C(C)N2C(=O)c3ccccc3S2(=O)=O)n1 (stereo unspecified)	.	-1%	-3.5%	3%
60	Cn1ncc([N+](=O)[O-])c1C(=O)Nc1nccs1	-5	-4%	5.7%	-14%
61	COc1ccc([C@@H]2[C@@H]3C(=O)N(C(C)(C)C)C(=O)[C@@H]3[C@]3(Cc4ccccc4)C(=O)N(c4cccc(Cl)c4)C(=O)N23)cc1	.	.	3.1%	4%
62	COc1ccc(-c2nc(SC)n(C)c(=O)c2C#N)cc1OC	0	-7%	0.2%	-15%
63	CC(C)NC(=O)CN(Cc1ccc(F)cc1)C(=O)CCC(=O)Nc1nccs1	.	-4%	-3.3%	-10%
64	CCOC(=O)C1C(c2ccccc2O)NC(=O)NC1(O)C(F)(F)F (stereo unspecified)	.	-2%	4.4%	3%
65	CSc1nnc(NC(=O)c2nc(S(=O)(=O)Cc3ccccc3)ncc2Cl)s1	.	?	-3.4%	8%
66	COc1ccc(CCN=C(NS(=O)(=O)c2ccccc2)c2ccccc2)cc1OC	6	-3%	-2.3%	-1%
67	CSc1ccc(/C=C2\NC(=O)NC2=O)cc1	.	.	-2.4%	-3%
68	NC(=S)N=Nc1c(O)n(Cc2ccc(Br)cc2)c2ccccc12	-12	13%	-0.2%	3%
69	CC(C#Cc1c([C@@H](C)Oc2ccccc2)nnn1Cc1ccccc1)Oc1ccccc1 (stereo partly specified)	5	1%	-0.1%	12%
70	CSC1=NCCN1C(=O)c1cccc(Br)c1	-3	-5%	1.3%	15%
71	O=c1[nH]nc(SCc2ccccc2)n1C1CC2C=CC1C2 (stereo unspecified)	?	-25%	-1.0%	-7%
72	Cc1ccc(OCCC(=O)Nc2ccc(C)c(F)c2)cc1	0	-9%	0.2%	-2%

Five compounds from above, showing only GLA inh pH 4.5, miR-21 FLuc and Rango release inh.
| nr | Molecule | GLA inh pH 4.5 | miR-21 FLuc | Rango release inh |
| --- | --- | --- | --- | --- |
| 8 | Cc1cc(=O)c2ccccc2[nH]1 | 5 | 2% | 18% |
| 58 | Cc1ccc(C(=O)CS(C)(=O)=O)cc1 | 1 | -2% | 14% |
| 9 | COc1ccc(CN2CCC(n3nccc3NC(=O)c3cccc(F)c3)CC2)cc1O | . | -3% | -10% |
| 36 | COc1cccc(OC)c1OCCCCc1c(C)n[nH]c1C | -1 | -1% | 11% |
| 10 | C[C@@H](O)C(C(=O)N1CCNCC1)n1cc([C@@H](N)CCCCN)nn1 (stereo partly specified) | . | . | -1% |

(cont.)
no.	smiles	GLA inh pH 4.5	miR-21 FLuc	Rango complex inh	Rango release inh
73	CCCN(Cc1cc(=O)[nH]c2ccccc12)C(=O)CC	-6	-2%	0.1%	8%
74	Cc1cc(OCc2nn[nH]n2)c2c(C)c(Cc3ccccc3)c(=O)oc2c1	-3	-7%	1.6%	1%
75	CCOC(=O)c1ccc(NC(=O)CCS(=O)(=O)Cc2ccccc2)cc1	.	0%	-0.5%	11%
76	CCN(CC)Cc1cc(CC(C(N)=O)C(N)=O)ccc1OC	-4	-4%	1.0%	1%
77	COc1ccc(C(=O)COC(=O)CN2C(=O)c3ccccc3C2=O)c(OC)c1	.	1%	-2.6%	2%
78	COc1ccc(CNC(=O)CSc2nc(C)cs2)cc1	-1	-1%	5.0%	0%
79	Cc1nc2cc(NC(=O)c3ccc(Br)s3)ccc2s1	.	-22%	-1.1%	0%
80	Cc1nc2ccccc2cc1C(=O)NCc1ccco1	8	-5%	3.1%	10%
81	CCCOc1ccc(C(F)(F)F)cc1NC(=O)CN1C(=O)C(=O)N(CC)C1=O	.	.	5.1%	-15%
82	CS(=O)(=O)N1CCN(Cc2cc(=O)n3ccsc3n2)CC1	.	-1%	-0.3%	10%
83	O=C(Nc1ccc2oc(=O)ccc2c1)c1ccccc1[N+](=O)[O-]	4	6%	0.0%	1%
84	O=C(O)c1cccc2c1-c1ccccc1/C2=N\Nc1ccccc1	.	-55%	?	6%
85	CC(C)OCCCNC(=O)c1cc(-c2cccs2)nc2ccccc12	.	10%	-1.3%	1%
86	O=C(Cc1coc2ccc3ccccc3c12)N1CCCC1	-4	-15%	0.1%	2%
87	O=C(COC(=O)CNC(=O)c1sc2ccccc2c1Cl)Nc1c(Cl)cc(Cl)cc1Cl	7	-1%	-0.8%	-27%
88	CCOc1ccc(NC(=O)c2cccnc2SC)cc1	-8	-35%	4.7%	3%
89	CN(CCOc1cccc(C(F)(F)F)c1)Cc1ccccc1	-8	1%	-0.4%	-16%
90	Cc1ccc(SCCNC(=O)c2ccccc2F)cc1	.	-6%	-5.5%	-18%
91	COC(=O)c1cc(S(=O)(=O)N2CCN(c3cc(C)ccc3C)CC2)c[nH]1	.	0%	3.1%	-8%
92	CC(C)OCCCn1c(=S)[nH]c2ncccc2c1=O	11	-7%	1.4%	-3%
93	CC(=O)c1ccc(NC(=O)CSc2nnc(-c3ccoc3C)n2Cc2ccccc2)cc1	-5	0%	0.1%	9%

This is a subset; count on the stated rates, not on these rows.
